Yeast UUG start – modulators of start codon recognition fidelity in yeast; activity score, % at 18.7 µM; S. cerevisiae UUG-firefly luciferase reporter, luminescence/redox ratio; 0.13% of 350,000 active;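 active = replicate mean at a twofold rise or more, about +100% in these data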;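 note: firefly luciferase made from a UUG start codon reports start codon fidelity; reporter light over untreated wells divided by growth signal over untreated wells; some hits fall short of that in this replicate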
HIV Env fusion – HIV envelope-mediated fusion inhibition. HeLa-JRFL Env/CEM21 cell fusion, luciferase. inhibition, % at 12.3 µM. 1.1% of 360,000 active;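 active = mean replicate inhibition score of at least 50 and every replicate individually at or above 50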;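 note: 0% = plate neutral controls and 100% = maraviroc near 300 nM; one replicate is shown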
PABP polyA inh – PABP-poly(A) binding inhibition | PABP-poly(A) RNA binding, fluorescence polarization | inhibition, % at 35 µM | 1% of 290,000 active | AID 2014;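 active = 50% or more with normal probe brightness, or confirmed in later tests; about a fifth of its hits are not listed in these tables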;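 note: calls also rest on retests at 20 µM and on dose response follow-up; controls were probe without protein and protein plus probe with vehicle; some compounds called inactive have numbers as strong as hits; many hits fall short of the cut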
Target sequence (P11940 whole entry, looked up): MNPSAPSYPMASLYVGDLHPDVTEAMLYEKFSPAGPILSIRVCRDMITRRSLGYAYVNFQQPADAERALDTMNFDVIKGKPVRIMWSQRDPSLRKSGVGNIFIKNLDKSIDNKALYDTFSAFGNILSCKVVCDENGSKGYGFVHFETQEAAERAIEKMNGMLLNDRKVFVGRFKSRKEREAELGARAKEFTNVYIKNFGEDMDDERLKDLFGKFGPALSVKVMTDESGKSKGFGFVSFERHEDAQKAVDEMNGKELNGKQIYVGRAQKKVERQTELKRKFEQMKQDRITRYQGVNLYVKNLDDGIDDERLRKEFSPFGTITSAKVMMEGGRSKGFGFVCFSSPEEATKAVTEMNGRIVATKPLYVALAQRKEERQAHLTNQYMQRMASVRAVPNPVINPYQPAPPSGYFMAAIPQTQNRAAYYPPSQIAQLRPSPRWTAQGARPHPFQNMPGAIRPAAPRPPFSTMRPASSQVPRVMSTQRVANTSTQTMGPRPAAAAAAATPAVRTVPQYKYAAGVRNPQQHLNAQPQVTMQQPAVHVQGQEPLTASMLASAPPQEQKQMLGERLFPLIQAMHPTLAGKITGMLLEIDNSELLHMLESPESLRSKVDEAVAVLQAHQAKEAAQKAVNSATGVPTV
CSC inhib – blocks cancer stem cells. cancer stem cell-like cells viability, luminescence. inhibition, % at 7.5 µM. 1.1% of 300,000 active. AID 2717;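 active = mean at 75% or more and at least half the replicates too; tested in HMLE shEcad cells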;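 note: 0% = median of negative and 100% = median of positive control wells; the first replicate is given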
Rce1 inhib – blocks yeast Ras-converting enzyme | yeast membranes, quenched prenylated peptide cleavage fluorescence | calls only | 0.27% of 290,000 active | AID 2563;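 active = fall in fluorescence gain of 50% or more versus controls, with final raw signal at or below 3038400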;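 note: plate controls were neutral control wells for no effect and wells lacking membranes for full effect; tested at 10 µM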
eIF4H FP inh – inhibitors of RNA binding by human eIF4H. eIF4H fluorescence polarization binding assay. inhibition, % at 35 µM. 0.94% of 290,000 active. AID 2012;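 active = 50% or more with normal probe brightness, or confirmed in later tests; about a fifth of its hits are not listed in these tables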;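 note: calls also rest on retests at 20 µM and on dose response follow-up; 0% = protein and probe with vehicle and 100% = probe without protein; strong numbers were not always called active; many hits fall short of the cut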
MT1-MMP act inh – blocks activation of human MT1-MMP. HT1080 RFP-PRO-GFP cells, GFP/RFP ratio fluorescence, overnight; percent of plate control window, DMSO zero. GFP/RFP ratio change, % at 20 µM. 0.061% of 360,000 active;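 active = GFP/RFP ratio change of at least 30% with cell ATP level not reduced by more than half and red fluorescence within 50% of control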; note: strong numbers were not always called active
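Assay system: HT1080 cells carrying an RFP-PRO-GFP reporter | Dosing: Single dose of 20 µM compound, 1% DMSO final | Incubation: Cells overnight before dosing, compound overnight, 37 °C, 5% CO2 | Evaluation: GFP/RFP fluorescence ratio | Control set: DMSO and RFP-L50D-GFP cell wells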
eIF4H FP inh retest – second read-out of eIF4H FP inh, no call of its own (marks repeat the call); inhibition, %; compound at 20 µM; confirmation average;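 mean of two retest wells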
PABP polyA inh retest – second read-out of PABP polyA inh, no call of its own (marks repeat the call); inhibition, %; compound at 20 µM; confirmation repeats;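 mean of two retest wells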
MT1-MMP act inh RFP – further read-out of MT1-MMP act inh, marked with its call; RFP signal change, %; measured here: RFP expression control read;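 0 = vehicle wells; hits needed this value within 50% of zero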
* = called active by the depositor; i = inactive; / = no result given.

SMILES	Yeast UUG start	HIV Env fusion	PABP polyA inh	CSC inhib	Rce1 inhib	eIF4H FP inh	MT1-MMP act inh	MT1-MMP act inh RFP	others
COc1ccc(C2C(C(C)=O)=C(O)C(=O)N2CCc2c[nH]c3ccccc23)cc1 (stereo unspecified)	/	17	10	-8	i	-3	5	0
CC1CCCCC1NC(=O)C1CCN(S(=O)(=O)c2ccc(-n3cnnn3)cc2)CC1 (stereo unspecified)	-19	17	-7	-6	i	-15	-2	2
CCN1C(=O)[C@H]2[C@H]3CN=C(SCc4ccccc4)N3[C@@](CC)(C(=O)OC)[C@H]2C1=O	-5	7	/	/	/	/	2	4
O=C(CSc1nnc(-c2ccc(Cl)s2)o1)N1CCCc2ccccc21	-6	/	-15	/	i	0	-1	1
CCOc1cc(/C=C\c2nc(O)c([N+](=O)[O-])c(=O)[nH]2)ccc1OC(C)CC (stereo unspecified)	/	-9	11	-3	i	10	1	1
O=C(c1ccccc1)c1c(O)cc(-c2ccccc2)oc1=O	-18	16	8	-8	i	36	4	1
CCn1cc(CN(C)C(=O)/C=C/c2ccc([N+](=O)[O-])cc2)c(C)n1	-10	-3	4	13	i	-1	-7	-4
Clc1cccc(N2CCN(Cc3ccc(Br)o3)CC2)c1	-4	12	6	-14	i	-19	-3	1
COc1ccc(C2Nc3ccccc3C(=O)N2Cc2ccccc2)cc1 (stereo unspecified)	0	-7	9	/	i	-2	-8	-7
O=C(N/N=C/c1cc(Br)cs1)c1ccccc1[N+](=O)[O-]	-2	-1	-5	10	i	3	18	1
Cc1cccc(C)c1NC(=O)CNC(=O)c1c(C)nn(-c2ccccc2)c1Cl	/	-7	/	9	i	/	1	-5
CCOc1cc(NC(=O)c2cccs2)c(OCC)cc1NC(=O)c1cccnc1	-13	1	-8	1	/	3	2	-1
CCOc1cc(N2CCOCC2)c(OCC)cc1NC(=O)c1cc(S(=O)(=O)N2CCOCC2)ccc1C	-2	27	/	-5	/	/	-2	2
O=c1[nH]cccc1-c1nc2ccccc2[nH]1	-22	-18	-2	-5	i	3	-3	1
COc1ccccc1C(=O)Nc1nnc(-c2ccc3c(c2)CCCC3)o1	-2	3	-2	28	i	-2	-3	0
CCOc1ccccc1C(=O)Nc1nnc(SCC(=O)N2CCCC2)s1	-7	-19	/	/	/	/	-1	0
NC(Cc1ccc(Oc2ccc(O)cc2)cc1)C(=O)O (stereo unspecified)	/	/	-10	-7	i	11	/	/
COc1cccc(NC(=O)Cn2c(CCC(=O)O)ccc2-c2ccc(C)cc2)c1	/	-11	4	4	i	3	-2	4
O=C(CNCc1ccccn1)Nc1cc(C(F)(F)F)ccc1N1CCOCC1	-21	6	2	-15	i	-1	0	0
COCCCNCCC(CCC(C)C)c1ccc2c(c1)OCO2 (stereo unspecified)	-3	6	-5	0	i	9	0	3

Not a retest: entries from further up.
SMILES	Yeast UUG start	HIV Env fusion	PABP polyA inh	CSC inhib	Rce1 inhib	eIF4H FP inh	MT1-MMP act inh	MT1-MMP act inh RFP	others
COc1cccc(NC(=O)Cn2c(CCC(=O)O)ccc2-c2ccc(C)cc2)c1	/	-11	4	4	i	3	-2	4
O=C(CNCc1ccccn1)Nc1cc(C(F)(F)F)ccc1N1CCOCC1	-21	6	2	-15	i	-1	0	0
COCCCNCCC(CCC(C)C)c1ccc2c(c1)OCO2 (stereo unspecified)	-3	6	-5	0	i	9	0	3

(next part)
SMILES	Yeast UUG start	HIV Env fusion	PABP polyA inh	CSC inhib	Rce1 inhib	eIF4H FP inh	MT1-MMP act inh	MT1-MMP act inh RFP	others
O=C(CN(C(=O)c1csnn1)c1ccc(F)cc1)NCCc1ccccc1	-15	2	-1	/	i	-3	1	4
N#C/C(=C/c1cc[nH]c1)C(N)=S	/	11	3	-9	i	99	5	8	eIF4H FP inh retest=-3;PABP polyA inh retest=4
CCn1c(SCC(=O)N/N=C/c2ccc(O)c(OC)c2)nc2ccccc21	/	5	-2	-2	i	-2	0	4
COc1cc(/C=C2\SC(=S)N(CCC(=O)Nc3ccc(O)cc3)C2=O)cc(OC)c1OC	2	14	-2	16	i	-2	6	-6
CCCn1c(N2CCN(CC(=O)c3c(C)n(C)c4ccc(OC)cc34)CC2)nc2c1c(=O)[nH]c(=O)n2C	-20	10	1	/	i	-8	7	7
COc1ccc(NC(=O)Nc2cc(C)ccc2F)cc1OC	2	14	9	5	i	-8	3	2
N#C/C(=C/c1ccccc1[N+](=O)[O-])C(=O)NCc1ccco1	-14	17	9.5*	-24	i	63*	-14	2	eIF4H FP inh retest=96*;PABP polyA inh retest=98*
CCOc1ccc(NC(=O)C(C)Oc2ccc(C#N)cc2)cc1S(=O)(=O)N1CCCC1 (stereo unspecified)	/	2	/	-3	/	/	3	1
COc1ccccc1NC(=O)CN1CCN(CC(=O)Nc2ccc(OC)c(OC)c2)CC1	-16	13	1	-6	i	1	-6	-3
CCNc1nc(N)nc(Oc2ccc(OCCOc3ccccc3)nn2)n1	-4	-21	-3	-8	i	-8	10	8
CCN(CC(=O)Nc1cc(Cl)ccc1C)C(=O)C1CCN(c2ncnc3sc(C)c(C)c23)CC1	-31	61*	/	/	/	/	1	-12
O=C(NNc1cccc(Cl)n1)c1ccc(Cl)cc1Cl	-11	-45	2	-16	i	-2	2	5
Cc1ccc(S(=O)(=O)N2CCN(C(=O)c3ccccc3)CC2)cc1	22	-4	-3	-7	i	-3	-4	-1
CC(=O)Nc1ccc(S(=O)(=O)NCCC(=O)Nc2ncccc2C)cc1	-2	11	/	/	i	/	5	9
CCN(CC)c1ccc(NC(=O)c2ccc3c(c2)OCO3)c(C)c1	2	-8	5	2	i	6	-2	-1
Cc1ccc(NC(=O)COc2nc(C)cs2)cc1	-11	-39	-11	3	/	-4	-7	0
O=C(COC(=O)CSc1ccccc1)NCCNC(=O)COC(=O)CSc1ccccc1	/	3	/	2	i	/	0	5
COC(=O)C1=C(C)NC(=O)CC1c1ccccc1OC (stereo unspecified)	/	5	3	-14	i	-4	6	4
CCOC(=O)CSc1nc2ccc(N3CCOCC3)cc2c(=O)n1Cc1ccccc1	-26	43	26	44	i	9	6	-7
Cc1ccccc1-n1nc2c(c1NC(=O)c1c(-c3ccccc3Cl)noc1C)CS(=O)(=O)C2	2	3	2	-5	i	-6	-4	0
CCOC(=O)c1ccc(NS(=O)(=O)c2cc(C)ccc2OC)cc1	-17	31	5	5	i	6	2	-12
CCCNC(=O)COC(=O)c1c2c(nc3ccccc13)CCC2	-18	2	9	-6	i	24	2	4
CC(C)NC(=O)c1onc(CSc2ccc(F)c(F)c2)c1C(=O)NC(C)C	-6	23	/	-7	i	/	-4	2
Cn1c(/C=C/c2cccc(Br)c2)nc2ccccc2c1=O	-7	-55	4	23	i	-17	/	/
CC1(C)CCC(=O)C=C1Nc1ccc(F)c(Cl)c1	-4	8	-9	-15	i	-1	0	0
CCCCNC(=O)CN1C(=O)NC(Cc2ccccc2)(Cc2ccccc2)C1=O	15	11	-4	-8	i	-1	1	1
Cc1[nH]c(=O)[nH]c(=O)c1/C=C/C(=O)O	-14	3	-1	-4	i	-11	0	3
NC(=S)N=Nc1c(O)[nH]c2c(Cl)cc(Cl)cc12	-20	-12	/	/	/	/	1	7
CCOc1ccc(NC(=O)N(Cc2ccc(C)cc2)Cc2ccccn2)cc1	-14	16	-3	1	i	2	2	0
CCOc1ccccc1C=C1CCc2ccccc2C1=O	-11	-25	/	/	/	/	0	0
C#CCN(CC=C)C(=O)C1CCC(=O)N(CCCc2ccccc2)C1 (stereo unspecified)	-9	-7	0	-9	i	1	-2	0
CCc1cccc2c1NC(=O)[C@]21[C@@H]2C(=O)N(Cc3ccccc3)C(=O)[C@@H]2[C@@H]2CCCN21	6	19	12	-15	i	20	-4	-3
Cc1ccc(C)c(OCC(=O)Nc2ccc(S(=O)(=O)Nc3ncccn3)cc2)c1	-37	-3	2	-5	i	1	3	3
Cc1cc(C(=O)N2CC=C(c3ccccc3)CC2)c2ccccc2n1	/	-29	/	53	i	/	-7	-18
CC(NC(=O)CNC(=O)C(Cc1ccccc1)NC(=O)OCc1ccccc1)C(N)=O (stereo unspecified)	/	14	16	-13	i	-5	1	1
O=C(CCCn1c(=S)[nH]c2cc3c(cc2c1=O)OCO3)N1CCc2ccccc2C1	-20	0	1	-9	i	7	-1	-4
CCOC(=O)CSc1nnc(NC(=O)c2cc([N+](=O)[O-])cc([N+](=O)[O-])c2)s1	/	/	5	-2	i	1	5	1
Cc1cccc(NC(=O)Cn2nc([N+](=O)[O-])c(Br)c2C)n1	-17	-22	0	-6	i	10	-1	-1
NNC(=O)/C(=C\c1cccs1)NC(=O)c1ccccc1	/	-7	5	-5	i	-8	3	1
Cc1cc(F)ccc1NCC(=O)Nc1ccccc1Br	-1	5	5	-2	i	12	0	6
Cc1nc(SCC(=O)N2CCOCC2)c2c(=O)n(C)c(=O)n(CC(C)C)c2n1	7	3	/	13	/	/	1	-4
COC(=O)C1=C(C)N(CCCC(=O)O)C(=O)NC1c1ccc2c(c1)OCO2 (stereo unspecified)	-12	3	/	-6	i	/	1	4
COc1ccccc1CNC(=O)CN1CCN(c2ccc(C(C)=O)cc2)CC1	-3	5	-12	-10	/	-7	1	0
O=C(NCCOC(=O)c1cccs1)c1cccnc1	-18	/	-1	-6	i	-6	2	0
COc1ccc(C2(CO)OC(CO)C(O)C2O)cc1 (stereo unspecified)	-14	-14	/	/	/	/	1	3
O=C(Nc1cccc(S(=O)(=O)N2CCCCC2)c1)C1CC(=O)N(Cc2ccccc2)C1 (stereo unspecified)	-9	14	/	-16	/	/	3	-9
CCC1=NN(C(=O)c2ccccc2[N+](=O)[O-])C(O)(c2ccccc2)C1 (stereo unspecified)	-5	-9	/	/	/	/	-5	-3
COc1ccc(S(=O)(=O)N2CCOCC2)cc1NC(=O)C1CCCN1C(=O)c1cccs1 (stereo unspecified)	-14	-2	/	/	/	/	-3	5
COc1cccc(CN(C)C(=O)CNC(=O)c2cccs2)c1OC	/	-4	/	-7	i	/	3	5
CC1(C)CC(=O)C([N+](=O)[O-])=C(NCCCC(=O)O)C1	/	/	7	-2	i	-4	0	14

Later entries:
SMILES	Yeast UUG start	HIV Env fusion	PABP polyA inh	CSC inhib	Rce1 inhib	eIF4H FP inh	MT1-MMP act inh	MT1-MMP act inh RFP	others
CC(C)Cn1c(SCC(=O)NCc2ccco2)nnc1-c1ccncc1	/	8	-4	7	i	-1	-5	9
Cc1cccc(CCNC(=O)C2CC(O)CN2C(=O)Nc2ccccc2)c1 (stereo unspecified)	-11	-21	/	/	/	/	7	5
Cc1csc(NC(=O)CSC2=NS(=O)(=O)c3ccccc3N2)n1	-12	4	/	-12	i	/	-2	0
O=C(COc1ccccc1Cl)N1CCCCCCC1	-1	-5	9	2	i	0	-3	-1
CC1=NN(S(=O)(=O)c2ccc(F)cc2)C(=O)c2ccccc2O1	0	23	-5	8	i	-8	2	6
C=CCn1c(-c2cccnc2Cl)nc2ccccc21	/	6	88	-9	i	4	2	8	eIF4H FP inh retest=-6;PABP polyA inh retest=2
Cc1cccc(N2CCN(CC3CCCCC3)CC2)c1C	-16	-1	1	1	i	-1	0	5
Cc1ccc(C)c(NC(=S)NC(=O)c2cncc(Br)c2)c1	-17	7	/	-20	i	/	-3	-4
CCCCNCCOc1ccccc1-c1ccccc1	-18	-52	-3	26	i	-14	-1	-3
O=c1c(-c2ccco2)[n+]([O-])c2ccccc2n1OCc1ccccn1	-20	-9	24	/	/	21	-1	2
CC(C)OCCCNC(=O)CN1CCN(Cc2ccccc2Cl)C1=O	-5	/	0	-2	i	-12	3	3
O=C(Nc1nc2ccccc2[nH]1)c1cccc([N+](=O)[O-])c1	/	-4	-7	-2	i	-6	12	1

The order is random. Share with any hit: about 3%.
